NS1 function inh: blocks influenza NS1 protein function; S. cerevisiae slowed by influenza A NS1, growth recovery by OD600; 270,000 compounds, 0.4% hits; AID 2326; Potency, µM (top dose mostly 46.1 µM), for inactives: at the highest dose activity, positive = more growth; active means well fitted rising curve with a large enough effect; inconclusive means small, poorly fitted or top-dose-only effect; inactive means no such curve, though single readings can be large or run the other way; note: nearly all actives have a fitted effect of over 50% in size
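In this qHTS, NS1 from influenza A is expressed in budding yeast, where it slows growth. Cells are switched from glucose to 2% galactose medium (pH 6.0, -URA), treated with compound, and growth recovery is read at OD600.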
SARS PLP yeast: inhibitors of SARS-CoV papain-like protease in yeast; S. cerevisiae expressing SARS-CoV PLpro, growth rescue; control for the full effect not named in the record; Potency, µM (titrated, usually from 32.9 µM), for inactives: at the highest dose activity, positive = growth rescue; 330,000 compounds, 0.19% hits; AID 485353; active means well fitted rising curve with a large enough effect; inconclusive means small, poorly fitted or top-dose-only effect; inactive means no such curve, though single readings can be large or run the other way; note: 0% is about no effect; nearly all actives have a fitted effect of over 55% in size; growth read by luminescence after 48 h
LASV entry inh: blocks Lassa virus binding to or entry into cells; Lassa virus pseudotype entry inhibition, cell reporter; control for the full effect not named in the record; Potency, µM (doses to about 37.9 µM), for inactives: at the top dose activity change, negative = inhibition, actives largely listed as inhibitors; 300,000 compounds, 1.2% hits; active means well fitted inhibition curve with a large enough effect; inconclusive means small, poorly fitted or top-dose-only effect, or effect the other way; inactive means flat fitted curve, though single readings scatter; tested in HEK293 cells; note: % is set by controls: 0 for no effect and ±100 for the full control effect; nearly all actives have a fitted effect of over 50% in size; luciferase read-out
Cruzain Triton: blocks cruzain activity in presence of Triton detergent; P25779; purified cruzain, Z-FR-AMC fluorescence, 0.01% Triton; 200,000 compounds, 0.43% hits; Potency, µM, inactives show max response, negative = inhibition, actives largely listed as inhibitors;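 note: plate controls were neutral wells for no effect and buffer without enzyme for full effect; nearly all actives have a fitted effect of over 40% in size; top concentration of the series not given in the record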
Target sequence (P25779 123-467 limits assumed): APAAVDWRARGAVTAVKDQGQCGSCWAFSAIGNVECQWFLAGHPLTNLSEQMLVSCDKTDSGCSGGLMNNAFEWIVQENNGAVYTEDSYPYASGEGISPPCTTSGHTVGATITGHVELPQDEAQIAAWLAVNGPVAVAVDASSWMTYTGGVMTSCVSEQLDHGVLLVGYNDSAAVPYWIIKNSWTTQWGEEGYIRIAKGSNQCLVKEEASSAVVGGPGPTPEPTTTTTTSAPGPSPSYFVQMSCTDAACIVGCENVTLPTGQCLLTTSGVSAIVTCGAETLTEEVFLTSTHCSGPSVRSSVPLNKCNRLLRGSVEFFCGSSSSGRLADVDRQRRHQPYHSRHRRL
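Compounds were screened in titration against cruzain (1.5 nM) with 0.01% Triton X-100 to counter colloidal aggregation. Activity was the AMC fluorescence increase over 60 s after adding 2 uM Z-FR-AMC at pH 5.5.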
Marburg entry inh: Marburg virus entry inhibition | Marburg virus pseudotyped entry inhibition, cell reporter; control for the full effect not named in the record; about a third of the inactives were read at about 46 µM | Potency, µM (highest dose often 37.8 µM), inactives show at the top dose activity change, negative = inhibition, actives largely listed as inhibitors | 300,000 compounds, 1.8% hits; active = well fitted inhibition curve with a large enough effect; inconclusive = small, poorly fitted or top-dose-only effect, or effect the other way; inactive = flat fitted curve, though single readings scatter; tested in HEK293 cells; about a fifth of its hits are not listed in these tables; note: % is set by controls: 0 for no effect and ±100 for the full control effect; luciferase read-out
Cruzain inh noDet: cruzain (T. cruzi) inhibition without detergent | purified cruzain, Z-FR-AMC fluorescence, no detergent | 200,000 compounds, 2.3% hits | AID 1476 | Potency, µM, without a hit: max response, negative = inhibition, most hits filed as inhibitors | P25779;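 note: plate controls were enzyme without inhibitor for no effect and buffer without enzyme for full effect; nearly all actives have a fitted effect of over 40% in size; top concentration of the series not given in the record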
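Detergent-free condition (0.00005% Triton X-100) in acetate buffer pH 5.5 with DTT. 1.5 nM enzyme and compound were pre-mixed 15 min, then 2 uM Z-FR-AMC substrate added; reaction progress from fluorescence change between first and third reads (60 s).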
RE007 growth inh: less growth of the S. pombe RE007 Vpr strain; Potency, µM (top dose mostly 92.2 µM), for the others: at the highest dose activity change, negative = less growth; S. pombe RE007 Vpr strain, BacTiter-Glo ATP luminescence, 24 h; control for the full effect not named in the record; 360,000 compounds, 0.21% hits; active = well fitted falling curve with a large enough effect; inconclusive = small, poorly fitted or top-dose-only effect; inactive = no such curve, though single readings can be large or run the other way;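 note: % is set by controls: 0 for no effect and ±100 for the full control effect; nearly all actives have a fitted effect of over 50% in size; the assay follows cell death caused by Vpr and the record does not say whether a fall means rescue or toxicity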
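Fission yeast RE007 carrying one integrated HIV-1 vpr copy, seeded at OD 0.01 in PMG+AL medium with 23 nL pinned compound. Grown 24 h at 30 degrees; viability read by BacTiter-Glo luminescence after 5 min.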
2A StopGo: lowers the luciferase signal of an FMDV 2A StopGo reporter | human cells with a luciferase reporter of 2A StopGo recoding; control for the full effect not named in the record | Potency, µM (series often up to 57.9 µM), inactives show at the top dose signal change, negative = less light | 410,000 compounds, 1.2% hits | AID 1159524; active = well fitted falling curve with a large enough effect; inconclusive = small, poorly fitted or top-dose-only effect; inactive = no such curve, though single readings can be large or run the other way; tested in HEK293T cells; note: % is set by controls: 0 for no effect and ±100 for the full control effect; nearly all actives have a fitted effect of over 45% in size; luciferase light after 4 h
* hit, by the source's call; ? = inconclusive; . = no result given; [ ] = another dose, or the depositor's remark. Unless noted, calls come from the whole dose curve; as a rule, active = well fitted curve in the direction sought with a large enough effect; inconclusive = small, poorly fitted or top-dose-only effect, or another doubt; inactive = no such curve, though single readings can be large; an effect the other way counts as inactive or inconclusive. Potency is the fitted concentration of half-maximal effect.

SMILES	NS1 function inh	SARS PLP yeast	LASV entry inh	Cruzain Triton	Marburg entry inh	Cruzain inh noDet	RE007 growth inh	2A StopGo
Cc1ccc(C)c(CS(=O)(=O)c2cn(CC(=O)N3CCC(C)CC3)c3ccccc23)c1	-6.7%	-7.7%	?	-11.9%	-14.4%	5.1%	?	-13.1%
CCOC(=O)c1ccc(Nc2nnc3nc(C)cc(C)n23)cc1	-3.7%	-5.3%	-6.5%	-0.5%	-16.6%	-15.8%	2.4%	-13.3%
CC(=O)Nc1ccccc1NC(=O)CC(C)(C)C	-4.6%	1.2%	-26.2%	-6.9%	0.9%	2.4%	-7.5%	-5.4%
CCCN1Cc2cccc(C(=O)NCc3ccc4c(c3)OCO4)c2C1=O	-46.6%	-0.6%	5.0%	-1.2%	?	-5.9%	11.1%	40.9%[activator]
O=C(O)c1ccccc1-c1nc2ccccc2c(=O)n1O	.	-1.3%	6.3%[46.1 µM]	.	9.4%[46.1 µM]	.	3.3%	-5.5%
CCC(CC)C(=O)Nc1cccc(C(=O)Nc2ccc(S(=O)(=O)Nc3ccc(C)cc3)cc2)c1	8.4%	7.4%	?	1.0%	?	-23.1%	-12.3%	?
O=P(NS(=O)(=O)c1ccc(Cl)cc1)(Oc1ccccc1)Oc1ccccc1	7.6%	22.3%	10.6%	-8.2%	6.5%	?	3.8%	.
O=C(N/N=C/c1ccc(Br)o1)c1cc([N+](=O)[O-])cc([N+](=O)[O-])c1	4.9%	-0.9%	.	.	.	.	3.9%	?
CCN(Cc1ccc2c(c1)OCCO2)C(=O)CN1C(=O)NC2(CCCCC2)C1=O	.	2.6%	7.8%	.	?	.	0.8%	14.1%
C=CCNC(=O)/C(C#N)=C/c1ccc(SC)cc1	.	-1.2%	?	.	-21.3%[46.1 µM]	.	-11.1%	29.0%
O=C(O)c1ccc(NC(=S)Nc2ccccc2)cc1	11.4%	-14.8%	8.8%	-0.4%	?	0.1%	6.0%	8.3%
COc1ccc(CCC(=O)NNC(=O)c2cc(Cl)ccc2OC)cc1	-1.7%	0.7%	-0.3%[46.1 µM]	.	-13.8%[46.1 µM]	.	-2.8%	-0.1%
COc1ccc(OC)c(C(=O)c2c(N)c(-c3nc(-c4ccc(C)c(C)c4)cs3)c3ccccn23)c1	.	.	14.0%[46.1 µM]	-1.9%	-0.9%[46.1 µM]	-6.0%	.	4.3%
Cc1nc(NCCO)c(C#N)c2c1COC(C)(C)C2	7.5%	-2.2%	2.0%	0.2%	2.2%	-7.5%	-4.2%	-23.1%
CCCOc1ccc(N2C(=O)CC(SCC(N)C(=O)OCC)C2=O)cc1 (stereo unspecified)	-7.5%	-23.1%	.	.	.	.	?	23.0%
CCN(CC)C(=O)c1ccc(NS(=O)(=O)c2ccccc2)cc1	-1.8%	1.8%	4.8%	3.4%	3.9%	0.4%	5.3%	2.8%
CSc1ccccc1C(=O)C1CCCN(S(=O)(=O)N(C)C)C1 (stereo unspecified)	1.6%	1.9%	9.3%	.	1.0%	.	-12.5%	-15.1%
COCCN(CCOC)C(=O)CN1C(=O)NC2(CCCc3sccc32)C1=O (stereo unspecified)	6.0%	-0.2%	-12.4%	.	3.3%[46.1 µM]	.	2.4%	-2.2%
CCC(C(=O)NCc1ccc(C)cc1)c1ccccc1 (stereo unspecified)	-16.8%	4.1%	.	.	.	.	8.2%	3.7%
COCCNC(=O)CN1CCOc2ccccc21	?	-9.7%	.	1.5%	.	1.2%	-8.8%	-3.0%
CCCCN1CNC(=S)N(CCc2ccc(OCC)c(OCC)c2)C1	6.4%	-2.1%	?	.	-17.9%[46.1 µM]	.	-2.2%	21.8%
CC[N+]1(C)CC2CCC(C)(C1)C2(C)C (stereo unspecified)	25.7%	1.6%	.	.	.	.	3.8%	-0.4%
Cc1cccc(OCC(=O)Nc2ccc(C(=O)Nc3ccccc3C(=O)O)cc2)c1C	9.8%	13.3%	.	.	.	.	8.1%	5.6%
Cc1c(C(=O)NCCc2ccc(S(N)(=O)=O)cc2)sc2nc3n(c(=O)c12)CCCC3	.	.	23.8%[46.1 µM]	-1.5%	.	-9.1%	.	-0.6%
O=C(NCC(c1ccco1)N1CCN(c2ccccc2F)CC1)c1cccs1 (stereo unspecified)	.	-7.3%	-17.1%	.	?	.	-15.2%	-4.6%
CC1=C(C(=O)N2CCOCC2)C(c2ccc(O)cc2)NC(=S)N1 (stereo unspecified)	5.3%	-5.7%	-0.1%	-1.8%	2.7%	8.9%	-11.7%	-14.6%
Cc1cc(NC(=O)C2CC(c3c(F)cccc3Cl)=NO2)n(-c2ccccc2)n1 (stereo unspecified)	18.1%	0.3%	-23.1%	.	3.3%	.	14.4%	-0.7%
CCSC1=NCN(CCCC(=O)O)CN1	-0.5%	?	-14.3%	7.7%	-0.3%	-3.6%	-15.4%	-2.3%
O=C(c1ccc(Cl)cc1)N(Cc1cccs1)C1CCS(=O)(=O)C1 (stereo unspecified)	-10.9%	4.9%	10.0%	5.3%	20.3%	4.7%	-0.2%	0.0%
CCN1CCc2nc(NC(=O)C(c3ccccc3)c3ccccc3)sc2C1	3.5%	-1.3%	-0.5%	-0.1%	?	-7.4%	5.2%	-10.3%
CC(=O)Nc1ccc(NC(=O)C(C)OC(=O)c2cc(S(=O)(=O)N(C)C)ccc2N2CCCC2)cc1 (stereo unspecified)	.	-3.4%	21.7%	.	-6.6%	.	4.6%	-11.6%
CCC(=O)N(Cc1cc2ccccc2[nH]c1=O)c1ccccc1OC	6.4%	-4.7%	?	.	?	.	-0.6%	-12.5%
CN(CC(=O)Nc1ccccc1Cl)C(=O)CSc1nnc(N)s1	.	-1.2%	0.0%	.	-10.6%[46.1 µM]	.	5.6%	3.8%
O=C(Nc1ccccc1)C1=C[C@H](c2ccc3c(c2)OCO3)C[C@H](OCc2ccc(CO)cc2)O1	13.4%	-3.1%	.	.	.	.	16.4%	33.2%[activator]
O=C(O)CCc1nn2cnc3sc4c(c3c2nc1=O)CCCC4	8.3%	9.1%	2.1%	-5.8%	-2.3%	-3.8%	10.0%	0.0%
COc1cc(/C=N/NC(=S)NC2CC3C=CC2C3)cc(OC)c1OC (stereo unspecified)	4.4%	1.5%	?	.	?	.	2.6%	?
N#C/C(=N\Nc1ccc([N+](=O)[O-])cc1)C(N)=S	-62.8%	-9.0%	?	.	?	.	-9.9%	-27.5%
NC(=S)Nc1ccc(F)c(F)c1F	-9.9%	4.8%	.	.	.	.	22.1%	7.1%
COc1cc(C(=O)Nc2cc(C)ccc2OCc2cc(=O)n3cc(C)sc3n2)cc(OC)c1OC	.	.	6.6%[46.1 µM]	2.0%	.	28.2%	.	-13.7%
O=C(CCc1nnc2ccc(NCc3ccccc3Cl)nn12)NC1CCCCC1	0.1%	-10.9%	?	.	?	.	-11.2%	14.3%
O=C(NCCNC(=O)c1ccc(Br)o1)c1cccnc1	10.2%	-3.6%	-7.4%	.	-5.4%	.	-3.1%	-12.2%
COc1cc(NC(=O)c2cc(=O)[nH]c3ccc(S(=O)(=O)N4CCOCC4)cc23)cc(OC)c1	.	-5.8%	7.4%	.	7.5%	.	-16.6%	-11.2%
CC(NC(=O)C1=CC=CN2CCS(=O)(=O)N=C12)c1ccc(Cl)cc1Cl (stereo unspecified)	.	-3.4%	7.6%	.	-21.1%	.	2.9%	-24.2%
CCOC(=O)c1c(NC(=O)CSc2nnc(-c3c[nH]c4ccccc34)n2CC)sc2c1CCCC2	?	4.2%	0.5%	-1.1%	3.2%	?	2.5%	.
COC(=O)c1ccc(NC(=S)NCCc2ccccc2C)cc1	-24.2%	-49.6%	-7.7%	-13.5%	9.4%	-8.1%	-9.3%	-14.2%
COc1cccc(N(CC(=O)NC2CCCC2)C(=O)CCC(=O)Nc2nccs2)c1	6.5%	-0.6%	.	.	13.0%[46.1 µM]	.	-5.5%	2.2%
CC(=O)c1ccc(N2CCN(C(=O)Nc3cn(CC(C)C)c(=O)c4ccccc34)CC2)cc1	.	.	28.1%[46.1 µM]	-6.8%	.	-7.4%	.	0.0%
N#Cc1cn(-c2cccc(C(F)(F)F)c2)c(=O)[nH]c1=O	-5.7%	-1.6%	?	.	13.8%[46.1 µM]	.	25.7%	2.0%
Cc1ccc(/C=N/NC(=O)Cn2cnc3c2c(=O)n(C)c(=O)n3C)s1	1.6%	-4.6%	6.0%	-7.4%	1.8%	-11.6%	-0.6%	-23.1%
COc1ccccc1C(=O)NNS(=O)(=O)c1ccc(F)cc1	-3.2%	4.4%	-8.4%[46.1 µM]	.	11.5%[46.1 µM]	.	25.8%	14.8%
Cc1ccc(C)c(S(=O)(=O)c2c(N)n(/N=C/c3ccco3)c3nc4ccccc4nc23)c1	-16.6%	5.2%	?	-2.9%	?	-24.7%	0.6%	.
Cc1csc(Nc2ccccc2C(F)(F)F)n1	-149.5%	-13.6%	7.1%	-17.8%	-3.7%	-7.6%	?	-4.7%
COCCNC(=O)/C(C#N)=C/c1ccc(C)o1	1.9%	18.7%	19.4%	.	?	.	-13.5%	12.6%
CCOc1cccc(C(=O)Nc2nc3c(s2)CC(C(C)(C)C)CC3)c1 (stereo unspecified)	.	.	16.7%[46.1 µM]	7.3%	?	-4.8%	.	7.8%
CC(C(=O)Nc1ccc([N+](=O)[O-])cc1Cl)N1CCN(S(=O)(=O)c2cccs2)CC1 (stereo unspecified)	.	-2.3%	?	.	-21.1%	.	4.7%	-25.7%
CC1CC(=O)N(CC(=O)Nc2ccc(OC(F)(F)F)cc2)c2ccccc2S1 (stereo unspecified)	.	.	.	-8.4%	6.9%[46.1 µM]	?	.	-22.4%
CC(CCc1ccccc1)NC(=O)COC(=O)C1=COCCO1 (stereo unspecified)	-11.0%	1.0%	-2.2%	4.3%	14.6%	-11.0%	-2.8%	-4.3%

Compound activity deposited in PubChem by National Center for Advancing Translational Sciences (NCATS).
